MLL AF4-AF9 inh = blocks AF4 peptide binding to human AF9; P42568; AlphaScreen, biotin-AF4 peptide binding to FLAG-AF9; inhibition, % at 10 µM; 350,000 compounds, 0.47% hits; AID 651704;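 active = every replicate reaching a set inhibition limit, whatever the replicate mean, cut at about 25% in these data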;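 note: 0% = plate neutral control median and 100% = total signal loss; the record names both 10 and 1 µM as test concentration; the first replicate is given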
Target sequence (P42568 whole entry, looked up): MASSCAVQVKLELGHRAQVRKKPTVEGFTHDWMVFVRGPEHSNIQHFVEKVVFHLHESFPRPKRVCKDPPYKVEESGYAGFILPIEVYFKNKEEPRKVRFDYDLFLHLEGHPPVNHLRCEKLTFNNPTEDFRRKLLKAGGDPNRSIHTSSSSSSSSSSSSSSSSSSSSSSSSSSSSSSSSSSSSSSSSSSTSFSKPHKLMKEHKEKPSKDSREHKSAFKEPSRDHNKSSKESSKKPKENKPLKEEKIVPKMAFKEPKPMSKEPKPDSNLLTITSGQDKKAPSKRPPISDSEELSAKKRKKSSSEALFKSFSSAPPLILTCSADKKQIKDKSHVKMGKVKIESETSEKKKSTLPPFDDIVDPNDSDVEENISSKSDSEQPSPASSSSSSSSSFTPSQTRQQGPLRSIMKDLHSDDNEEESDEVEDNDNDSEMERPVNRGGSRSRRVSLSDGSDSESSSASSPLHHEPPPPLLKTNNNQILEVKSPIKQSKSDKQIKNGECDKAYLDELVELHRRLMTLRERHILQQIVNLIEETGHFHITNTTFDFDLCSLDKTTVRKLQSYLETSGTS
rRNA inh HTS = inhibitors of bacterial rRNA selective over humanized ribosomes; E. coli WT GFP vs humanized-ribosome RFP mutants, fluorescence, 24 h; active compounds read low; DMSO median 0, no signal -100; GFP signal change (wild-type ribosome), % (no concentration beside the values); 350,000 compounds, 1.6% hits; AID 720706;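 active = significant combined selectivity score with lowered wild-type GFP, culture density cut under 30%, mutant RFP and density less affected; inactive = any of these conditions unmet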; note: one replicate is shown; some compounds called inactive have numbers as strong as hits
FGF22 binding = shifts melting point of recombinant human FGF22 | calls only at 9.99 µM | 340,000 compounds, 1.5% hits | AID 651658 | recombinant FGF22 thermal shift, SYPRO orange fluorescence; percent of sucrose octasulfate shift, DMSO zero | Q9HCT0;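 active = melting point raised past a set limit in the mean and every replicate; three in four hits are not shown here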
Target sequence (Q9HCT0 whole entry, looked up): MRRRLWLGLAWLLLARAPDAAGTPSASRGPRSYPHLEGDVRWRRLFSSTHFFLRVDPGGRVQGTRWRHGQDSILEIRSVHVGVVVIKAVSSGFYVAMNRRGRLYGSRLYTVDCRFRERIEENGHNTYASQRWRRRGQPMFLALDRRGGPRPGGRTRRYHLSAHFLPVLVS
rRNA inh HTS OD600 = also measured in rRNA inh HTS; calls as there; OD600 change, %; measured here: OD600 growth;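 optical density of the mix in the first replicate; 0 = DMSO median and -100 = no signal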
rRNA inh HTS RFP = second read-out of rRNA inh HTS, no call of its own (marks repeat the call); RFP signal change, %; measured here: RFP humanized mutant strains;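 first replicate; 0 = DMSO median and -100 = no signal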
The depositor's hits bear a star; i = inactive.

| MLL AF4-AF9 inh | rRNA inh HTS | rRNA inh HTS OD600 | rRNA inh HTS RFP | FGF22 binding | SMILES |
| --- | --- | --- | --- | --- | --- |
| 1.8 | 11 | 14 | 10 | i | CC(C)C[C@H]1CNC(=S)N1C[C@H]1CCCN1C[C@H](Cc1ccc(O)cc1)N1C[C@H](Cc2ccc(O)cc2)N(CC2CCCCC2)C1=S |
| -3.8 | 1 | 0 | -1.5 | i | C[C@H](CO)N1C[C@H](C)[C@H](CN(C)Cc2ccccc2)Oc2ccc(NS(C)(=O)=O)cc2CC1=O |
| 0.1 | -6 | -5 | 1.1 | i | C[C@H](CO)N1C[C@H](C)[C@@H](CN(C)S(=O)(=O)c2ccc(Cl)cc2)Oc2c(NC(=O)C3CCCCC3)cccc2C1=O |
| -0.3 | -11 | -7 | 23 | i | Nc1[nH]c(C(=O)c2ccccc2)c(-c2cccnc2)c1C(=O)NCCc1ccc(Cl)cc1Cl |
| -1.9 | 3 | -3 | -0.1 | i | CCNC(=O)[C@@H]1[C@@H](CO)[C@@H]2Cn3c(ccc(-c4ccccc4F)c3=O)[C@@H]2N1C(=O)CC |
| -1.1 | 1 | 4 | -1.5 | i | Cc1ccc(C(=O)OCC(=O)NCc2cccs2)s1 |
| -1.1 | -3 | -8 | -1.8 | i | O=C(COC(=O)Cc1ccc(Cl)cc1)NCc1ccc(Cl)cc1 |
| -1.7 | 6 | 17 | -3.8 | i | N#C[C@H]1[C@H](c2ccc(-c3cncnc3)cc2)[C@@H](CO)N1C(=O)C1CCOCC1 |
| -0.4 | 1 | 1 | -0.9 | i | C[C@H](CO)N1C[C@H](C)[C@@H](CN(C)Cc2ccc(C(=O)Nc3ccccc3N)cc2)Oc2ccc(NC(=O)Nc3ccc(F)cc3)cc2C1=O |
| -4.4 | -1 | -6 | -6.1 | i | CN1CCN(C(=O)C[C@@H]2CC[C@H]3[C@@H](COC[C@@H](O)CN3Cc3cccc(Cl)c3)O2)CC1 |
| 4.2 | 2 | 3 | 0.5 | i | COc1ccc(CN(C)C[C@H]2Oc3ccc(NC(=O)Nc4ccc(OC)cc4)cc3C(=O)N([C@H](C)CO)C[C@H]2C)cc1 |
| -2.6 | -1 | 1 | -5.2 | i | O=C(Nc1ccc2c(c1)OCCO2)c1ccccc1Cl |
| 3.7 | -3 | 3 | -0.3 | i | C[C@H](C(=O)N(C)C[C@H]1OCc2ccccc2-c2c(n(C)c3ccccc23)C(=O)N([C@H](C)CO)C[C@@H]1C)c1ccccc1 |
| 16 | -53 | -82 | -20 | i | O=C(C[C@H]1C[C@H](C(=O)N2CCOCC2)[C@@]2(CCC3CCCC3)c3[nH]c4ccc(Cl)cc4c3CCN2C1=O)NCCCn1ccnc1 |
| -3.2 | 7 | 9 | 0.6 | i | CCCS(=O)(=O)NC(=O)C1(C)CCCN(C(=O)c2ccc(F)c(Cl)c2)C1 (stereo not given) |
| 1.8 | 0 | 7 | 2.1 | i | Cc1noc(C)c1NC(=O)N(C)C[C@H]1OCCCC[C@@H](C)Oc2ccc(NS(=O)(=O)c3c(C)noc3C)cc2C(=O)N([C@H](C)CO)C[C@H]1C |
| 1.6 | 1 | 10 | -0.3 | i | COCC(=O)Nc1ccc2c(c1)[C@H]1C[C@@H](CC(=O)NC3CCCC3)O[C@H](CO)[C@H]1O2 |
| -0.1 | 4 | 8 | -0.8 | i | C[C@@H]1CCCCO[C@H](CN(C)Cc2ccc(C(=O)O)cc2)[C@H](C)CN([C@@H](C)CO)C(=O)c2cc(NS(=O)(=O)c3cccs3)ccc2O1 |
| 0.8 | -3 | -11 | -1.2 | i | C[C@@H]1CN([C@H](C)CO)C(=O)c2cc(NS(=O)(=O)c3cccs3)ccc2O[C@@H](C)CCCCO[C@@H]1CN(C)S(=O)(=O)c1cccs1 |
| 0.9 | -4 | -30 | 13 | i | C[C@H](CO)N1C[C@H](C)[C@H](CN(C)C(=O)c2ccccc2F)Oc2ncc(C#Cc3cccc(F)c3)cc2C1=O |
| -3.9 | -6 | -6 | 1.9 | i | O=S(=O)(c1ccccc1)N1CCCCN2[C@H](C1)[C@@H](c1ccc(C#Cc3cccnc3)cc1)[C@@H]2CO |
| 1.8 | -1 | 4 | 1.4 | i | CCCN(C)C[C@H]1Oc2cc(C#Cc3ccccn3)ccc2S(=O)(=O)N([C@H](C)CO)C[C@H]1C |
| -2.8 | -1 | -1 | -0.6 | i | CCC(=O)N1CC2(C1)[C@@H](c1ccc(-c3ccc(C#N)cc3)cc1)[C@H](CO)N2C(C)=O |
| -0.5 | 3 | 3 | -0.8 | i | CCCN1[C@H](C(=O)NCCOC)[C@@H](CO)[C@@H]2Cn3c(ccc(-c4ccc(C(=O)N(C)C)cc4)c3=O)[C@@H]21 |
| 0.5 | 7 | 8 | 0.8 | i | O=C(COC(=O)c1cccc(S(=O)(=O)N2CCOCC2)c1)NC1CCCCC1 |
| 2.0 | -2 | -3 | 4.5 | i | CCC(=O)N1CC[C@@H]2[C@H]1c1cc(C#Cc3ccccc3)ccc1N[C@@H]2CO |
| 0.2 | 4 | 5 | -1.4 | i | CCCN(C)C[C@@H]1Oc2ncc(-c3ccc(OC)cc3)cc2C(=O)N([C@H](C)CO)C[C@@H]1C |
| 7.2 | 1 | 0 | 3.7 | i | CNC[C@@H]1Oc2cc(C#CCC(C)C)ccc2S(=O)(=O)N([C@H](C)CO)C[C@H]1C |
| -1.9 | 5 | 3 | 0.8 | i | COc1cccc(N2CCN(C(=O)c3ccc(OC)c(S(=O)(=O)NC4CC4)c3)CC2)c1 |
| -2.0 | 25 | 18 | 5.5 | i | O=S1(=O)c2c(F)cccc2O[C@@H](COCc2ccccc2)CN1CCc1ccc(F)cc1 |
| 2.6 | 6 | 10 | 0.0 | i | CC(=O)N1CCCCN2[C@H](CO)[C@@H](c3ccc(-c4ccccc4)cc3)[C@H]2C1 |
| 1.7 | 6 | 9 | -0.9 | i | O=C(NCC(c1ccccc1)N1CCCC1)C1CCN(C(=O)Nc2ccccc2)CC1 (stereo not given) |
| 12 | -2 | 4 | -0.5 | i | CC(C)C[C@H]1COCn2nncc2CC[C@H](Cc2ccccc2)C(=O)N1 |
| -2.6 | 2 | 0 | 0.8 | i | C[C@H](CO)N1C[C@H](C)[C@H](CN(C)Cc2ccc(C(=O)O)cc2)OCc2cn(nn2)CCCC1=O |
| 0.4 | 1 | -13 | 1.6 | i | COC(=O)c1ccc(Cn2cnc3c(Cl)ncnc32)cc1 |
| -3.4 | -50 | -73 | -13 | i | CC(O)(c1cccnc1)c1nc(-c2cc(F)cc(F)c2)cs1 (stereo not given) |
| 1.7 | 2 | 1 | 1.1 | i | C[C@H](CO)N1C[C@H](C)[C@H](CN(C)C(=O)CCC(F)(F)F)OCc2cn(nn2)CCCC1=O |
| 2.0 | 1 | -2 | -2.1 | i | C[C@H](CO)N1C[C@H](C)[C@@H](CN(C)C(=O)Nc2ccccc2)Oc2ccc(NC(=O)Cc3cn(C)c4ccccc34)cc2CC1=O |
| 1.1 | -1 | -14 | -2.7 | i | Cc1ccc(-c2ccc3c(c2)O[C@@H](CN(C)C(=O)NC(C)C)[C@H](C)CN([C@@H](C)CO)S3(=O)=O)cc1 |
| 5.2 | 8 | 20 | 2.9 | i | C/C=C/c1ccc([C@@H]2[C@H](CO)N3CCCCN(C(=O)CN(C)C)C[C@@H]23)cc1 |
| -4.0 | 0 | -2 | -2.9 | i | Cc1noc(C)c1NC(=O)N(C)C[C@@H]1Oc2ccc(NS(=O)(=O)c3ccccc3)cc2C(=O)N([C@@H](C)CO)C[C@H]1C |
| -1.7 | 7 | 13 | -1.3 | i | C[C@H]1CN([C@@H](C)CO)C(=O)Cc2cc(NS(=O)(=O)c3ccccc3)ccc2O[C@@H]1CN(C)C(=O)NC1CCCCC1 |
| 0.3 | 4 | 12 | -1.3 | i | Cc1ccc(S(=O)(=O)N[C@H]2CC[C@H](CC(=O)NCc3ccncn3)O[C@H]2CO)cc1 |
| 4.0 | 6 | -17 | 0.7 | i | CCCCn1c(N)c(N(CC(C)C)C(=O)CSc2nn(-c3ccc(F)cc3)c(=S)s2)c(=O)[nH]c1=O |
| 4.5 | 1 | 0 | -4.4 | i | CCCC#Cc1cnc2c(c1)C(=O)N([C@H](C)CO)C[C@H](C)[C@@H](CN(C)S(C)(=O)=O)O2 |
| 6.3 | -4 | -32 | 12 | i | C[C@H](O)C#Cc1ccc2c(c1)O[C@H](CN(C)Cc1ccc(-c3ccccc3)cc1)[C@H](C)CN([C@H](C)CO)S2(=O)=O |
| 3.0 | 1 | 13 | 1.6 | i | CN(C)CC(=O)N[C@H]1CC[C@H](CCNC(=O)C2CCC2)O[C@@H]1CO |
| 1.6 | -2 | -1 | 1.4 | i | O=C(C[C@H]1CC[C@@H](NS(=O)(=O)c2cccc(F)c2)[C@H](CO)O1)NCc1ccc2c(c1)OCO2 |
| 4.3 | 6 | -6 | 0.4 | i | COc1ccc2c3c(n(C)c2c1)[C@H](CO)N(C(=O)CN(C)C)CC31CN(Cc2nccs2)C1 |
| -3.5 | 2 | 8 | 0.0 | i | C[C@@H]1CN([C@@H](C)CO)C(=O)c2cc(-c3cccnc3)cnc2O[C@H]1CN(C)C(=O)Nc1ccc2c(c1)OCO2 |
| -16 | -2 | 5 | -1.1 | i | CCN(CC(=O)Nc1ccccc1C(=O)NC1CC1)Cc1cccs1 |
| 7.0 | -9 | -29 | -2.9 | i | C[C@@H]1CN([C@H](C)CO)C(=O)c2cccc(NC(=O)Nc3ccccc3)c2O[C@H]1CN(C)CC1CCCCC1 |
| 3.5 | -15 | -5 | 1.6 | i | COc1ccc(-c2c(-c3ccc4c(c3)OCO4)c3ccccc3n2C)cc1 |
| -3.0 | 0 | 12 | 1.0 | i | C[C@@H]1CN([C@H](C)CO)C(=O)Cc2cc(NC(=O)CCN3CCOCC3)ccc2O[C@H]1CN(C)C |
| 14 | -18 | -55 | 23 | i | C[C@@H]1CN([C@@H](C)CO)C(=O)c2cc(/C=C/c3ccccc3)cnc2O[C@@H]1CN(C)Cc1ccccc1F |
| 9.6 | -4 | -7 | 2.3 | i | CCC(=O)N1C[C@@H](C)[C@@H](OC)CN(C)C(=O)c2cc(NC(=O)Nc3cccc(F)c3)ccc2OC[C@H]1C |
| 2.1 | 1 | 3 | -1.0 | i | COCCN(CC(=O)Nc1cccc(C)c1C)C(=O)c1ccc2c(c1)OCO2 |
| 1.3 | -4 | 5 | 1.1 | i | CO[C@H]1CN(C)C(=O)c2ccc(NC(=O)NC(C)C)cc2OC[C@@H](C)N(Cc2ccc(-c3ccccn3)cc2)C[C@@H]1C |
| 4.4 | -46 | -44 | 23 | i | COc1cccc(CN2CC3(C2)CN(C(=O)Nc2ccc(F)cc2)[C@@H](CO)c2c3c3ccc(OC)cc3n2C)c1 |
| 8.0 | -1 | -5 | 5.4 | i | CO[C@H]1CN(C)C(=O)c2cc(NC(=O)NC3CCCCC3)ccc2OC[C@@H](C)N(CCc2ccccc2)C[C@H]1C |

(more compounds)
| MLL AF4-AF9 inh | rRNA inh HTS | rRNA inh HTS OD600 | rRNA inh HTS RFP | FGF22 binding | SMILES |
| --- | --- | --- | --- | --- | --- |
| -4.3 | 0 | -5 | 1.7 | i | Cc1cc(C)cc(CC(=O)N2CCC2(C)C(=O)NS(=O)(=O)Cc2ccccc2)c1 (stereo not given) |
| -9.4 | 6 | 6 | 0.5 | i | Cc1nnc(SCC(=O)N2CCN(c3ccccc3F)CC2)n1C1CC1 |
| 0.1 | 3 | 2 | -2.8 | i | CC1(C(=O)NS(=O)(=O)C2CC2)CCCN(C(=O)Cc2ccc3ccccc3c2)C1 (stereo not given) |
| 2.7 | 2 | -13 | -0.8 | i | Cn1cnc(S(=O)(=O)N2CCCCN3[C@H](C2)[C@H](c2ccc(C4=CCCCC4)cc2)[C@@H]3CO)c1 |
| -4.3 | 6 | 0 | -3.5 | i | C[C@H](CO)N1C[C@H](C)[C@@H](CN(C)C(=O)CN(C)C)Oc2ncc(-c3ccc(C(=O)N(C)C)cc3)cc2C1=O |
| 0.1 | 3 | -3 | 0.7 | i | C[C@@H](NC(=O)C[C@H]1C=C[C@H](NC(=O)C2CC2)[C@H](CO)O1)c1ccccc1 |
| 0.1 | 0 | -4 | 6.3 | i | COc1cccc(S(=O)(=O)N[C@H]2C=C[C@H](CC(=O)NC3Cc4ccccc4C3)O[C@H]2CO)c1 |

Screens from PubChem BioAssay.

An excerpt. The share of hits here may be higher or lower than overall.
